Source: PubChem BioAssay (Broad Institute)
ID4 SMM = binders of human ID4 protein, primary screen, biochemical, small molecule microarray, single point; DNA-binding protein inhibitor ID-4 (Homo sapiens), P47928; Flag-ID4 binding, fluorescence F/B; calls only; 31,000 compounds, 1.2% hits;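 active = spot signal over background at p below 0.07 in all four prints; compounds were printed on slides so no solution concentration is given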;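 also: a binder raises fluorescence above local background on the spot; about 2 pmol printed per array spot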
Target sequence (P47928 whole entry, looked up): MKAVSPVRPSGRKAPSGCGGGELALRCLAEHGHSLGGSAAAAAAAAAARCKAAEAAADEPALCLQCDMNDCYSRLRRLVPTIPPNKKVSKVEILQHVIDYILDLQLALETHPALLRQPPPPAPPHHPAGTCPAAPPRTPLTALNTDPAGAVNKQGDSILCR
Calls only; i = inactive; + = active, no number. An excerpt; count on the stated rates, not on these rows.

SMILES	ID4 SMM
O=C(CNS(=O)(=O)c1cc(Cl)ccc1Cl)Nc1ccc(Oc2ccccc2)cc1	i
COc1cccc(NC(=O)CN(C)S(=O)(=O)c2cc(C)ccc2OC)c1	i
Cc1c(Cl)cccc1NC(=O)CSc1nnc(-c2ccc(Cl)c(Cl)c2)n1C	i
CCCN(C)C[C@@H]1Oc2cc(-c3ccc(F)cc3)ccc2S(=O)(=O)N([C@@H](C)CO)C[C@@H]1C	i
Cc1cccc(-c2noc(CN(C(=O)c3ccc(Br)o3)C(C)C)n2)c1	i
C[C@H]1CN([C@@H](C)CO)S(=O)(=O)c2ccc(-c3cccc(F)c3)cc2O[C@H]1CN(C)CC1CC1	i
COc1ccc(Cc2nccc3cc(OC)c(OC)cc23)cc1OC	i
CCC(=O)N[C@H]1CC[C@H](CC(=O)NCC2CCCCC2)O[C@@H]1CO	i
Cc1ccccc1-c1cnc2c(c1)C(=O)N([C@@H](C)CO)C[C@H](C)[C@@H](CN(C)CC1CCCC1)O2	i
Cc1cc(C)cc(OCC(=O)Nc2ccccc2N2CCN(C)CC2)c1	i
O=C(Cn1cnc2sc(-c3ccccc3)cc2c1=O)NCc1ccco1	i
CCOc1cc(C)c(Cl)cc1S(=O)(=O)n1nnc2ccccc21	i
CSc1cccc(NC(=O)CSc2nnc(-c3cccc(C)c3)n2-c2ccccc2)c1	i
NNC(=O)c1cc(COc2c(Cl)cccc2Cl)on1	i
C[C@@H]1CN([C@H](C)CO)C(=O)Cc2cc(N(C)C)ccc2O[C@@H]1CN(C)Cc1ccc2c(c1)OCO2	i
CNC(=O)CN(c1cccc(Cl)c1Cl)S(=O)(=O)c1ccccc1	i
CCc1nc(SCC(=O)Nc2ccccc2C)n[nH]1	i
C[C@H](CO)N1C[C@H](C)[C@@H](CN(C)Cc2ccccn2)Oc2ncc(-c3ccc(F)cc3)cc2C1=O	i
CCn1c(SCC(=O)O)nc2sc3c(c2c1=O)CC(C)(C)OC3	i
O=C(C[C@@H]1C=C[C@H](NC(=O)C2CC2)[C@@H](CO)O1)NC1CCC1	i

The closing five records of the section before open the next one:
SMILES	ID4 SMM
CNC(=O)CN(c1cccc(Cl)c1Cl)S(=O)(=O)c1ccccc1	i
CCc1nc(SCC(=O)Nc2ccccc2C)n[nH]1	i
C[C@H](CO)N1C[C@H](C)[C@@H](CN(C)Cc2ccccn2)Oc2ncc(-c3ccc(F)cc3)cc2C1=O	i
CCn1c(SCC(=O)O)nc2sc3c(c2c1=O)CC(C)(C)OC3	i
O=C(C[C@@H]1C=C[C@H](NC(=O)C2CC2)[C@@H](CO)O1)NC1CCC1	i
O=C(NCC[C@@H]1CC[C@H](NC(=O)C2CCCC2)[C@@H](CO)O1)c1cc(Cl)cc(Cl)c1	i
C[C@@H]1CN([C@H](C)CO)C(=O)c2cc(Br)cnc2O[C@@H]1CN(C)C(=O)C1CC1	i
COc1ccc(C#Cc2ccc3c(c2)[C@]2(C(=O)N3)[C@H](c3ccc(OCCO)cc3)N3[C@H](c4ccccc4)[C@H](c4ccccc4)OC(=O)[C@H]3[C@@H]2C(=O)N2CCCCCCC2)cc1	i
Cc1ccccc1-c1cnc2c(c1)C(=O)N([C@H](C)CO)C[C@H](C)[C@@H](CN(C)Cc1ccccc1F)O2	i
CS(=O)(=O)Nc1ccc2c(c1)[C@@H]1C[C@H](CC(=O)N3CCc4ccccc4C3)O[C@@H](CO)[C@@H]1O2	i
CN1CCN(C2=Cc3ccccc3Oc3ccc(Cl)cc32)CC1	i
CCCN(C)C[C@@H]1Oc2cc(C3=CCCC3)ccc2S(=O)(=O)N([C@H](C)CO)C[C@@H]1C	i
CO[C@@H](CN(C)S(=O)(=O)c1ccc(F)cc1)[C@@H](C)CN(C(=O)Nc1ccccc1F)[C@H](C)CO	i
CCCN(C)C[C@@H]1Oc2ncc(-c3cccc(C#N)c3)cc2C(=O)N([C@@H](C)CO)C[C@@H]1C	i
COc1ccc(C(=O)CCC(=O)Nc2ccc(Br)cc2)cc1	i
CN(C)C(=O)Nc1ccc(Cl)c(Cl)c1	i
Cc1ccc(Cl)c(OCC(=O)NCc2cccnc2)c1	i
C[C@@H]1CN([C@H](C)CO)C(=O)c2cc(-c3cccc(C#N)c3)cnc2O[C@H]1CN(C)C	i
COc1ccc(-c2cc(=O)c3c(O)c(OC)c(O[C@H]4O[C@H](CO[C@@H]5O[C@@H](C)[C@H](O)[C@@H](O)[C@H]5O)[C@@H](O)[C@H](O)[C@H]4O)cc3o2)cc1	i
C[C@@H]1CN([C@H](C)CO)S(=O)(=O)c2ccc(C#Cc3cccnc3)cc2O[C@H]1CN(C)CC1CCOCC1	i
C[C@@H]1CN([C@H](C)CO)C(=O)c2cc(C#CCN(C)C)cnc2O[C@H]1CN(C)Cc1ccccn1	i
Cc1cc2nn(-c3ccc(Cl)cc3)nc2cc1NC(=O)COc1ccc([N+](=O)[O-])cc1	i
Cc1ccc(NC(=O)CN(C)S(=O)(=O)c2ccccc2)c(C)c1	i
COc1ccc(-c2nnc(SCC(=O)O)n2-c2ccccc2)cc1OC	i
Cc1ccccc1NC(=O)c1ccc(C)c(S(=O)(=O)Nc2cccc(C(=O)O)c2)c1	i
O=[N+]([O-])c1ccc(S(=O)(=O)N2CCN(C(=S)NCc3ccco3)CC2)cc1	i
CCCN(C)C[C@@H]1Oc2cc(C3=CCCCC3)ccc2S(=O)(=O)N([C@H](C)CO)C[C@@H]1C	i
COc1ccc(-n2c(SCC(=O)Nc3ccccc3OC)nc3sc4c(c3c2=O)CCCC4)cc1	i
O=C(NCCN1CCOCC1)c1cccc(S(=O)(=O)N2CCCCCC2)c1	i
COCCOC(=O)N1C(=O)[C@@]2(c3cc(C#CCC(C(=O)OC)C(=O)OC)ccc31)[C@H](C(=O)N1CCN(c3ncccn3)CC1)[C@H]1C(=O)O[C@H](c3ccccc3)[C@H](c3ccccc3)N1[C@@H]2c1ccc(O)cc1	i
Cc1ccc(OCCCn2c(CO)nc3ccccc32)cc1	i
CC(C)Cc1nc(SCC(=O)Nc2ccc3ccccc3c2)n[nH]1	i
COc1ccc(CNC(=O)C[C@H]2CC[C@H](NC(=O)CN(C)C)[C@H](CO)O2)cc1	i
COc1ccccc1S(=O)(=O)N[C@H]1C=C[C@@H](CC(=O)N2CCOCC2)O[C@@H]1CO	i
Cc1ccc([N+](=O)[O-])cc1S(=O)(=O)NCc1cccnc1	i
CCc1ccccc1NC(=O)CSc1ncnc2sc(C)c(C)c12	i
N#C[C@H]1[C@@H](c2ccc(C#CC3CCCC3)cc2)[C@@H](CO)N1S(=O)(=O)Cc1ccccc1	i
COc1ccccc1NC(=O)C1=C(C)Nc2nnnn2C1c1ccccc1OC (configuration not stated)	i
C[C@H]1CN([C@@H](C)CO)C(=O)c2cc(/C=C/c3ccccc3)cnc2O[C@@H]1CN(C)S(=O)(=O)c1cccs1	i
COc1ccccc1CC(=O)Nc1cc(OC)c(OC)cc1C(=O)O	i
O=C(N[C@@H]1CC[C@@H](CC(=O)N2CCc3ccccc3C2)O[C@H]1CO)C1CCOCC1	i
CCCC#Cc1cnc2c(c1)C(=O)N([C@@H](C)CO)C[C@@H](C)[C@H](CN(C)Cc1cccnc1)O2	i
CC1=C(C#N)C(C(F)(F)F)(C(F)(F)F)N=C(c2ccncc2)N1	i
CC(=O)c1cccc(N(CC(=O)N2CCOCC2)S(C)(=O)=O)c1	i
Cc1ccccc1OCCn1c(C(O)c2ccccc2)nc2ccccc21 (configuration not stated)	i
C[C@@H]1CN([C@@H](C)CO)C(=O)c2cc(-c3ccccc3)cnc2O[C@@H]1CN(C)C	i
CCCN(C)C[C@H]1Oc2ncc(C#CCC(C)C)cc2C(=O)N([C@H](C)CO)C[C@@H]1C	i
COC(=O)c1c(NC(=O)COc2ccc(Cl)c(C)c2)sc2c1CCC2	i
Cc1nnc(SCC(=O)Nc2ccc(C)c([N+](=O)[O-])c2)s1	i
COC(=O)c1c(C)cc2c(c(C)c1=O)OC1(C2)C(C)CCC2C(C)(C)OC(=O)C=CC21C (configuration not stated)	i
C[C@H]1CN([C@@H](C)CO)C(=O)c2cc(C3=CCCC3)cnc2O[C@H]1CN(C)Cc1ccc(F)cc1	i
COc1cc(OC)c(C2=NOC(C(=O)Nc3c(C)nn(Cc4ccc(F)cc4)c3C)C2)cc1Cl (configuration not stated)	i
CCCN(C)C[C@@H]1Oc2ncc(-c3cccc(C#N)c3)cc2C(=O)N([C@@H](C)CO)C[C@H]1C	i
C[C@@H]1CN([C@H](C)CO)C(=O)c2cccc(N(C)C)c2O[C@@H]1CN(C)Cc1ccncc1	i
CO[C@@H]1CN(C)C(=O)c2ccc(NC(C)=O)cc2OC[C@@H](C)N(Cc2cc(F)ccc2F)C[C@H]1C	i
Next part:
SMILES	ID4 SMM
C[C@H]1CN([C@@H](C)CO)C(=O)c2ccccc2-c2ccccc2CO[C@H]1CN(C)C(=O)[C@H]1CCCN1C	i
O=C(C[C@H]1C=C[C@H](NC(=O)C2CCC2)[C@@H](CO)O1)NCC1CC1	i
CC(C(=O)Nc1cc(C(F)(F)F)ccc1Cl)n1cc([N+](=O)[O-])cn1 (configuration not stated)	i
Cc1ccc(N2CC(C(=O)Nc3ccc(S(=O)(=O)NCC4CCCO4)cc3)CC2=O)cc1 (configuration not stated)	+
C[C@@H]1CN([C@H](C)CO)C(=O)c2cc(-c3cccc(F)c3)cnc2O[C@H]1CN(C)Cc1ccccn1	i
Cc1ccc(N2C(=O)C3C4C=CC(CNC(=S)Nc5ccc(Br)cc5)(O4)C3C2=O)cc1 (configuration not stated)	i
CC1CCc2c(sc(NC(=O)COc3cccc4ccccc34)c2C#N)C1 (configuration not stated)	i
CC(=O)N/C(=N/c1nc(C)cc(C)n1)Nc1cc(C)cc(C)c1	i
Cc1ccc(N(CC(=O)Nc2ccccc2F)S(C)(=O)=O)cc1Cl	i
O=C(C[C@H]1CC[C@@H](NC(=O)C2CCC2)[C@H](CO)O1)NCCCN1CCOCC1	i
COc1ccc(-c2cc(=O)[nH]c(SCC(=O)Nc3ccc(Br)cc3)n2)cc1	i
C[C@H](NC(=O)C[C@H]1C[C@@H]2c3cc(NC(=O)Nc4ccc(C(F)(F)F)cc4)ccc3O[C@@H]2[C@@H](CO)O1)c1ccccc1	i
O=C(CCCN1C(=O)c2cccc3cccc(c23)C1=O)Nc1ccccc1Br	i
[N-]=[N+]=Nc1ccccc1C[C@@]1(C(=O)NCc2ccccc2)N=C(c2ccc(OCCCO)cc2)O[C@@H]1c1ccccc1	i
Cc1cc(C)nc(SCC(=O)Nc2ccc(S(=O)(=O)NC(C)(C)C)cc2)n1	i
COc1cccc(C(=O)COc2cccc(NC(=O)c3ccc([N+](=O)[O-])cc3)c2)c1	i
CCC(=O)N1CCN(c2ccc(Cl)cc2NC(=O)COc2ccc(C(C)(C)C)cc2)CC1	i
CC(C)CC#Cc1cnc2c(c1)C(=O)N([C@H](C)CO)C[C@@H](C)[C@@H](CN(C)C(=O)c1ccc3c(c1)OCO3)O2	i
Cc1ccnc(NS(=O)(=O)c2ccc(NC(=O)c3cc4c(s3)CCCC4)cc2)n1	i
O=C(CC1C(=O)NCCN1C(=O)Nc1ccccc1)Nc1cccc(Cl)c1 (configuration not stated)	i

An excerpt from above in order of molar mass, low to high.
SMILES	ID4 SMM
Cc1ccnc(NS(=O)(=O)c2ccc(NC(=O)c3cc4c(s3)CCCC4)cc2)n1	i
CCC(=O)N1CCN(c2ccc(Cl)cc2NC(=O)COc2ccc(C(C)(C)C)cc2)CC1	i
CC(C)CC#Cc1cnc2c(c1)C(=O)N([C@H](C)CO)C[C@@H](C)[C@@H](CN(C)C(=O)c1ccc3c(c1)OCO3)O2	i
C[C@H](NC(=O)C[C@H]1C[C@@H]2c3cc(NC(=O)Nc4ccc(C(F)(F)F)cc4)ccc3O[C@@H]2[C@@H](CO)O1)c1ccccc1	i

(listing goes on)
SMILES	ID4 SMM
CCCN(C)C[C@@H]1Oc2cc(-c3ccccc3)ccc2S(=O)(=O)N([C@H](C)CO)C[C@@H]1C	i
CC(C)(C)C(=O)CSc1ncnc2sc3c(c12)CCCC3	i
C[C@H]1CN([C@@H](C)CO)S(=O)(=O)c2ccc(C#CC3CC3)cc2O[C@@H]1CN(C)Cc1ccccc1F	i
N#C[C@H]1[C@@H](c2ccc(C#CC3CCCC3)cc2)[C@@H](CO)N1S(=O)(=O)c1ccccc1	i
C[C@H](CO)N1C[C@H](C)[C@@H](CN(C)CC2CC2)OCc2ccccc2-c2ccccc2C1=O	i
COc1cc([N+](=O)[O-])ccc1NC(=O)CN(C)S(=O)(=O)c1ccc(C)cc1	i
O=C(CC1(O)C(=O)N(Cc2ccc(Cl)cc2)c2ccc(Cl)cc21)c1ccccn1 (configuration not stated)	i
CCCN(C)C[C@H]1Oc2cc(C#CC3(O)CCCC3)ccc2S(=O)(=O)N([C@@H](C)CO)C[C@H]1C	i
O=C(Cc1ccccc1)N[C@H]1CC[C@@H](CC(=O)N2CCCCC2)O[C@H]1CO	i
N#Cc1c(NC(=O)CSc2nc3c(c(C(F)(F)F)n2)CCCC3)sc2c1CCCC2	i

Part of the list above, with bars between the fields.
Structure | ID4 SMM
O=C(CC1(O)C(=O)N(Cc2ccc(Cl)cc2)c2ccc(Cl)cc21)c1ccccn1 (configuration not stated) | i
CCCN(C)C[C@H]1Oc2cc(C#CC3(O)CCCC3)ccc2S(=O)(=O)N([C@@H](C)CO)C[C@H]1C | i
O=C(Cc1ccccc1)N[C@H]1CC[C@@H](CC(=O)N2CCCCC2)O[C@H]1CO | i

Continued.
SMILES	ID4 SMM
C[C@@H]1CN([C@@H](C)CO)C(=O)c2cccc(NC(=O)C3CC3)c2O[C@H]1CN(C)CC1CC1	i
C/C=C/c1cnc2c(c1)C(=O)N([C@@H](C)CO)C[C@H](C)[C@H](CN(C)Cc1ccccc1F)O2	i
C[C@@H]1CN([C@H](C)CO)S(=O)(=O)c2ccc(-c3cccc(F)c3)cc2O[C@H]1CN(C)C	i
C/C=C/c1cnc2c(c1)C(=O)N([C@H](C)CO)C[C@H](C)[C@H](CN(C)C(=O)NCCC)O2	i
O=C(CCCN1C(=O)c2ccccc2C1=O)Nc1cc(Cl)cc(Cl)c1	i
C[C@@H]1CN([C@@H](C)CO)C(=O)c2cc(C#CC3CCCCC3)cnc2O[C@@H]1CN(C)S(=O)(=O)c1cccc(F)c1	i
O=C(CSc1nc2ccc(NC(=O)c3ccccc3)cc2s1)Nc1cccc([N+](=O)[O-])c1	i
